Bioassay records deposited in PubChem by National Center for Advancing Translational Sciences (NCATS).
TRPV1 PAM = HTS Assay for Compounds that Act as Potentiators of the Vanilloid Receptor 1; Transient receptor potential cation channel subfamily V member 1 (Homo sapiens), Q8NER1; TRPV1-expressing cells, Fluo-8 calcium influx, capsaicin EC20 potentiation; host cell line not named in the record; control for the full effect not named in the record; potentiation, % at 8.33 µM; 0.02% of 320,000 active; AID 540277, 2011; active means potentiation above 80%; inconclusive means 30% to 80%; inactive means below 30%; further: 0% is about no effect
Target sequence (Q8NER1 whole entry, looked up): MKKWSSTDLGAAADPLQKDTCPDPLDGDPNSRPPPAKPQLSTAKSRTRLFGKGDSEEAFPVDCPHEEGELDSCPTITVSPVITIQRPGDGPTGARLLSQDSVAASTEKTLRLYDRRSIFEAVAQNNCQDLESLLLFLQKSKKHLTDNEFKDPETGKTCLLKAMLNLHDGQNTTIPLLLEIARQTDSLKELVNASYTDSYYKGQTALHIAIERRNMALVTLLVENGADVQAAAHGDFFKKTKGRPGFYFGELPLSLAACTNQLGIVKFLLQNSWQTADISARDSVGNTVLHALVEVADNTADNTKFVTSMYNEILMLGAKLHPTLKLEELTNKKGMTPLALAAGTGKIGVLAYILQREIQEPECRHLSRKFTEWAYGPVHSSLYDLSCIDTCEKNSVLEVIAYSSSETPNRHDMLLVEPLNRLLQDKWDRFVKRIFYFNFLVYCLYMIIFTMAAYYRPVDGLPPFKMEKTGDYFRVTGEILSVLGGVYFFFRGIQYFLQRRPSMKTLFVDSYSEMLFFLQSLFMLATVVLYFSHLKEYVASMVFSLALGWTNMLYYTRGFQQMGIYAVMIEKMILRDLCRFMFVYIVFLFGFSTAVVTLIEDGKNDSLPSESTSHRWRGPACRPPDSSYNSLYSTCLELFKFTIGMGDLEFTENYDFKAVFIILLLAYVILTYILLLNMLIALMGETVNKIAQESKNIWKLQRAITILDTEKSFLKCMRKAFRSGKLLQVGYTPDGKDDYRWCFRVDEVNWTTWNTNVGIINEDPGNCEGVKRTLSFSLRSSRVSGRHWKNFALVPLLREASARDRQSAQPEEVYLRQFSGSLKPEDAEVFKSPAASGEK
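TRPV1-expressing cells were cultured overnight at 35.5C and loaded with Fluo-8 calcium dye for 40 to 90 min at room temperature. After a 10 s baseline, compound was added and calcium influx was read kinetically for 3 min (ex 480/em 520 nm).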
Menin-MLL FL inh = qHTS Assay for Inhibitors Targeting the Menin-MLL Interaction in MLL Related Leukemias: Competition With Fluorescein Labeled MLL-derived Peptide; Fluorescence polarization, fluorescein-MLL peptide displacement from menin; FP activity change, % at 61.4 µM; 290,000 tested, under 10 active; inconclusive = falling polarisation curve, or a change in total fluorescence; inactive = total fluorescence flat and polarisation flat or rising; no compound was filed as active; the % refers to the polarisation; negative = inhibition;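 further: % of control where 0% means no effect; inhibitors lower the polarisation; unlabelled MLL peptide was the positive control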
Sfp inh = qHTS Assay for Inhibitors of Bacillus subtilis Sfp phosphopantetheinyl transferase (PPTase) | Potency, µM, for inactives: max response, negative = inhibition, usual class: inhibitors | 4'-phosphopantetheinyl transferase ffp (Bacillus subtilis), Q9F4F7 | Biochemical Sfp PPTase activity, qHTS | AID 1490, 2009 | 3.5% of 310,000 active; active means well fitted inhibition curve with a large enough effect; inconclusive means small, poorly fitted or top-dose-only effect, or another doubt; inactive means no such curve, though single readings can be large or run the other way;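 further: the enzyme is Sfp with the accession as filed and its product quenches rhodamine fluorescence; potency means the concentration at half of the fitted maximal effect; 0% = enzyme reaction without inhibitor and -100% = no enzyme wells; top concentration of the series not given in the record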
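Fluorescence-quenching assay: 15 nM Sfp-PPTase preincubated 15 min at room temperature with compound, then 5 uM rhodamine-CoA and 12.5 uM BHQ-2-labelled YbbR peptide added. Fluorescence (ex 525/em 598 nm) read at start and after 30 min; difference gives rate.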
TRPML1 blocker = qHTS for Inhibitors of the Human Mucolipin Transient Receptor Potential 1 (TRPML1). AID 624415, 2012. activity change, negative = inhibition, % (no concentration beside the values). Mucolipin-1 (Homo sapiens), Q9GZU1. TRPML1-inducible cells, Ca2+ dye fluorescence, FDSS; active compounds read low; inhibition of EC80 agonist-evoked calcium signal. 0.02% of 390,000 active; in the data active means activity change below about -50%; inconclusive means about -30% to -50%; inactive means above about -30%;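 further: stimulus is agonist 54-4 at its EC80 concentration; on the % scale 0 is the no-effect control and ±100 the full control effect; compound concentration not given in the record; the text of the record puts the active cut at -80%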
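Tet-induced TRPML1-DL cells loaded with Ca8 no-wash calcium dye were read kinetically on FDSS. Compound addition was followed by EC80 agonist 54-4 (4 uM final); inhibition was read over 110 s.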
ClpP mod = qHTS Assay for Activators of ClpP; ATP-dependent Clp protease proteolytic subunit (Bacillus subtilis (strain 168)), P80244; Potency, µM (highest dose often 57.5 µM), inactives show at the highest dose activity change, negative = active; purified B. subtilis ClpP, FRET peptide cleavage, 20 min; 1.9% of 340,000 active; active = well fitted falling curve with a large enough effect; inconclusive = small, poorly fitted or top-dose-only effect; inactive = no such curve, though single readings can be large or run the other way; further: potency means the concentration at half of the fitted maximal effect; the source files actives as falling curves though it sought activators and does not explain the sign; nearly all actives have a fitted effect of over 65% in size; many hits overshoot -100%
Target sequence (P80244 whole entry, looked up): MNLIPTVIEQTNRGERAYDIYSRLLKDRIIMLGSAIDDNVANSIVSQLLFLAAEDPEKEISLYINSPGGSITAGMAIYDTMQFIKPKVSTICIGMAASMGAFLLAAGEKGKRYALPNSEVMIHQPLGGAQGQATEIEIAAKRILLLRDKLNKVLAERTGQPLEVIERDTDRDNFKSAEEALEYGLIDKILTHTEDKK
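ClpP 10 microg/mL final, pH 8 Tris/KCl buffer with BSA, glycerol, Tween-20; compound pinned in; FRET-FV substrate; RT 20 min; Ex320/Em430; ΔFRET vs ADEP 5.8 microM, DMSO, no enzyme.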
PINK1 modulator = A Quantitative High throughput Screen to Identify Chemical Modulators of PINK1 Expression; PINK1 immunofluorescence, high-content cytometry, 24 h; Potency, µM (top dose mostly 76.6 µM), for the others: at the highest dose activation (PINK1 increase), most hits filed as activators; 0.2% of 410,000 active; active = well fitted activation curve with a large enough effect; inconclusive = small, poorly fitted or top-dose-only effect; inactive = flat fitted curve, though single readings scatter; cell line not stated here;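 further: potency means the concentration at half of the fitted maximal effect; % of control where 0% means no effect; nearly all actives have a fitted effect of over 65% in size; a mitochondrial uncoupler was the plate control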
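Stable cell line treated 24 h with compounds at 5 concentrations (CCCP controls), then fixed and immunostained for PINK1 plus nuclear and cell stains; PINK1 immunofluorescence quantified by laser-scanning microplate cytometry.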
TRPML1 agonist = qHTS for Agonists of the Human Mucolipin Transient Receptor Potential 1 (TRPML1); Mucolipin-1 (Homo sapiens), Q9GZU1; TRPML1-expressing cells, Ca2+ dye fluorescence, FDSS; host cell line not named in the record; reference of the full effect not given here; activation, % (test concentration not listed); 0.12% of 410,000 active; AID 624414, 2012; in the data active = activation above about 50%; inconclusive = about 30% to 50%; inactive = below about 30%; further: 0% is about no effect; the text of the record puts the active cut at 80%
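Calcium fluorescence on an FDSS kinetic reader gave the read-out. Tet-induced TRPML1-DL cells were plated overnight, dye-loaded (Ca8 with quencher, 45-90 min, room temperature, dark), then read 110 s after compound addition, and again 110 s after 4uM final 54-4 (EC80).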
Active calls of the source: *; ? = inconclusive; . = not tested or not shown; & = joins results of further samples; [ ] = dose if it differs, or a comment.

SMILES	TRPV1 PAM	Menin-MLL FL inh	Sfp inh	TRPML1 blocker	ClpP mod	PINK1 modulator	TRPML1 agonist
CC1(C(=O)Nc2ccc3c(c2)OCCO3)CCC(=O)N1CCc1c[nH]c2ccccc12 (stereo not given)	.	.	.	.	-0.5%	1.5%	-0.1
CC(C)N(Cc1ccccc1)S(=O)(=O)c1ccc(F)cc1	-2	-4.2	-4%	17	.	2.2%	0.2
CC1CCCC(C)N1C(=O)COC(=O)Cc1ccc(F)cc1 (stereo not given)	-6	16	8%	10	.	1.6%	1.0
O=C(O)CN1C(=O)c2cccc3c(Br)ccc1c23	15	-0.7	18%	-13	.	-0.9%	-0.2
COc1ccc(Cc2nnc(N/N=C/c3ccccc3O)[nH]c2=O)cc1OC	9	2.5	-3%	-1	-11%	0.6%	2.5
CC(NC(=O)OC(C)(C)C)C(=O)N1CCCC1C(=O)NC(Cc1ccccc1)C(N)=O (stereo not given)	-2	-6.3	-11%	4	0.8%	0.6%[38.3 µM]	-0.7
CCN(c1ccc(OC)cc1)S(=O)(=O)c1ccc(-c2ccc(=O)[nH]n2)o1	-7	.	12%	-12	-6.5%	2.9%	3.5
COc1ccc(S(=O)(=O)N(CC(=O)Nc2ccc(F)c(Cl)c2)c2ccc(C)cc2)cc1OC	.	.	.	-13	0.2%	5.3%	4.9
COc1ccc(S(=O)(=O)NCC2CCCN(CC(C)(C)C)C2)cc1 (stereo not given)	-12	9.2	10%	-1	.	1.9%	0.0
O=C(Nc1ccc(Cl)cc1Cl)C1=Cc2ccccc2OC1	-8	2.0	12%	-4	2.9%	-1.4%	-0.7
CN(c1ccc(C(=O)N2CCCCCC2)cc1)S(=O)(=O)c1ccc(Cl)cc1	1	.	20%	56	1.5%	-1.4%	1.1
CCN(CC(=O)NCc1cccs1)C(=O)c1ccc(NS(=O)(=O)c2ccc(F)cc2)cc1	3	.	.	13	1.4%	0.9%	-0.5
C/C(=N\NC(=O)c1ccc(Cn2cc(Br)cn2)o1)c1cccc(NC(=O)C(C)C)c1	4	2.5	14%	-4	-1.9%	-0.2%	0.5
COc1ccc(S(=O)(=O)N2CCCC2)cc1OC	-5	-0.4	13%	-7	.	0.9%	0.4
CCc1nnc(SCc2cc(C)ccc2C)c2cc3sc(C)cc3n12	.	.	.	13	-28%	-0.2%	-0.7
Cc1cccc(NC(=O)CCNS(=O)(=O)c2cc(Br)cnc2N)c1C	8	-1.9	18%	-2	?	-0.7%	-0.3
O=C(Nc1ccccc1F)c1cc(Cl)sc1Cl	-8	-5.6	4%	3	0.0%	0.8%	-0.8
CNC(=S)N(C1=NCC(c2ccc([N+](=O)[O-])cc2)S1)c1ccccc1 (stereo not given)	8	7.5	0%	33	.	3.4%	2.5
Cc1cc(NC(=O)c2ccc(S(=O)(=O)N(C)C)cc2)n(-c2ccccn2)n1	6	0.5	-1%	3	-2.0%	4.1%	0.4
O=C(CSCC(=O)OCC(=O)N1CCN(C(=O)c2ccco2)CC1)Nc1ccc(Cl)cc1	.	.	.	-8	-2.4%	-0.9%	-0.4
CCN(c1ccccc1)S(=O)(=O)c1ccc(N2CCN(c3ccccc3O)CC2)nc1	-4	.	.	16	-6.1%	0.6%	-0.1
O=C(Nc1ccc2[nH]c(=O)[nH]c2c1)C(F)(F)F	7	0.6	13%	-16	.	-0.3%	-0.3
CCC(Sc1ncc(S(=O)(=O)c2ccc(Cl)cc2)c(=O)[nH]1)C(=O)Nc1ccc(OC)cc1 (stereo not given)	.	.	.	-3	-0.2%	-0.8%	1.0
O=C(CN1C(=O)CCc2cc(S(=O)(=O)N3CCOCC3)ccc21)NCc1ccc(F)cc1	.	.	.	3	-2.2%	1.0%	-0.4
COC(=O)Nc1ccc2c(c1)ncn2C1CCCCC1	1	2.6	12%	5	-3.2%	.	0.7

Complete entries, quoted from the list. Order of values: TRPV1 PAM | Menin-MLL FL inh | Sfp inh | TRPML1 blocker | ClpP mod | PINK1 modulator | TRPML1 agonist
Results for CC(C)N(Cc1ccccc1)S(=O)(=O)c1ccc(F)cc1 = -2 | -4.2 | -4% | 17 | . | 2.2% | 0.2
Results for COc1ccc(Cc2nnc(N/N=C/c3ccccc3O)[nH]c2=O)cc1OC = 9 | 2.5 | -3% | -1 | -11% | 0.6% | 2.5

(next part)
SMILES	TRPV1 PAM	Menin-MLL FL inh	Sfp inh	TRPML1 blocker	ClpP mod	PINK1 modulator	TRPML1 agonist
C/C(=N\NC=O)c1ccncc1	25	4.4	3%	-7	-3.1%	-1.3%	1.1
CCOC(=O)C(C(=O)OCC)C(CC(=O)C1CC1)c1ccccc1 (stereo not given)	-5	-0.1	13%	6	0.9%	-0.6%	-0.3
Cc1cccc(NC(=O)CSc2nnc(CCC(=O)Nc3ccc(C)c(Cl)c3)n2C)c1	6	-0.7	8%	9	0.4%	.	-0.3
Cc1cccc(OCCNC(=O)c2ccc(Oc3ccc(C(F)(F)F)cc3[N+](=O)[O-])cc2)c1	-2	1.7	10%	14	-0.2%	-0.4%	3.4
C=CCOc1ccc(/C=C/C(=O)OCC(=O)N2CCN(S(=O)(=O)c3ccc(C)cc3C)CC2)cc1	.	.	.	10	-27%	8.0%	0.0
Cn1nc(-c2ccc(Cl)cc2)c2cc(C(=O)N3CCN(C(=O)c4ccco4)CC3)sc21	7	-1.3	?	-14	-3.9%	-0.2%	0.0
CCOc1cc(NC(=O)c2ccco2)c(OCC)cc1NC(=O)CCC(=O)NCc1cccnc1	?	2.1	-5%	-3	-2.8%	?	0.4
O=C(CCCN1C(=O)/C(=C/c2ccccc2Cl)SC1=S)NNC(=O)c1ccccc1Cl	0	11	-17%	-9	9.6%	2.2%	1.9
C[C@@H](C(=O)NCC1CCCO1)N1C(=O)N2CCc3c([nH]c4ccccc34)[C@@]2(C)C1=O (stereo not given in full)	-7	3.7	6%	.	0.5%	3.2%	.
S=C(c1ccc2c(c1)OCO2)N1CCOCC1	-9	4.2	-27%	4	0.9%	1.1%	1.2
Cn1c(CN2CCOCC2)nnc1SCC(N)=O	0	1.1	11%	-26	-2.2%	-1.0%	-0.2
COc1cc(C=O)ccc1OC(=O)Nc1ccccc1	.	.	.	8	.	-0.4%	-0.3
Cc1ccc(NS(=O)(=O)c2c(C(=O)N3CCCCCC3)c(C)n(C)c2C)c(Cl)c1	9	0.4	10%	0	0.9%	-0.7%	-1.3
COc1cc(OC)c(-c2nnc3n(CCc4ccccc4)c(=O)c4ccccc4n23)cc1OC	6	2.1	10%	.	.	.	.
CCC(C(=O)N1CCc2cc(OC)c(OC)cc2C1)c1ccccc1 (stereo not given)	-7	5.1	12%	-6	-1.9%	-0.9%	3.7
O=C(Nc1ccccc1C(=O)N/N=C/c1ccncc1)c1ccccc1	-5	0.9	9%	3	.	-0.3%	0.3
COC(=O)c1ccc(N(CC(=O)NC2CCCC2)C(=O)CNC(=O)c2cccs2)cc1	21	3.1	6%	10	-0.9%	3.0%	-0.8
CC1CCN(c2c(NCc3ccc(C(=O)N4CCc5ccccc54)cc3)c(=O)c2=O)CC1	12	5.1	-10%	21	-3.4%	1.6%	-0.4
CCOC(=O)c1cc2c(=O)n3ccccc3nc2n(C)c1=NC(=O)c1c(-c2c(F)cccc2Cl)noc1C	.	.	.	-12&-21	3.9%	1.1%&1.6%	0.8&0.6
COc1cc(NC(=O)c2ccc(F)cc2)c(OC)cc1NC(=O)CN1CCCCC1	20	-6.8	-10%	-3	1.5%	5.1%	-0.7
CCn1cc(/C=C/C(=O)Nc2ccn(Cc3c(F)c(F)c(F)c(F)c3F)n2)cn1	2	0.1	-4%	-4	4.5%	-1.1%	-1.0
C=CCn1c(NCCOC)nc2c1c(=O)n(C)c(=O)n2C	8	-6.9	2%	-7	1.2%	1.0%	-0.6
CC(C)(C)NC(=O)C(c1ccncc1)N(C(=O)Cn1nnc(-c2ccc(F)cc2)n1)c1ccccc1F (stereo not given)	2	-7.9	?	-5	.	5.9%	1.8
Cc1cc(C)cc(OC(=O)COc2ccccc2C)c1	7	0.3	2%	16	.	1.8%	2.4
CC(C)(C)c1ccc(OCCC(=O)Nc2cccc(S(=O)(=O)N3CCCC3)c2)cc1	-2	.	.	5	1.2%	3.3%	2.1
(cont.)
SMILES	TRPV1 PAM	Menin-MLL FL inh	Sfp inh	TRPML1 blocker	ClpP mod	PINK1 modulator	TRPML1 agonist
Cc1ccc(C)c(N(CC(=O)N(C)C)S(C)(=O)=O)c1	22	0.1	8%	16	-2.1%	0.0%	0.5
CC(Sc1nnc(-c2ccncc2)n1C)C(=O)Nc1ccc(N2CCOCC2)cc1 (stereo not given)	4	.	.	-7	-1.8%	0.3%	1.5
CCS(=O)(=O)N1CC(=O)N(c2ccccc2C)C(C)(C(=O)NC2CCCCC2)C1 (stereo not given)	.	.	.	-6	-8.8%	-0.3%	0.8
COc1ccc(NC2=Nc3cccc4cccc2c34)cc1	-2	23	-20%	-6	1.1%	12%	17
CN1CCN(Cc2c(O)c(Cl)cc3c(-c4ccccc4)cc(=O)oc23)CC1	-8	-0.1	6%	-9	-11%	-0.5%	2.2
O=C(CN1C(=O)CCn2nc(-c3ccccc3)cc21)NCc1ccc(Cl)cc1	.	.	.	-10	1.7%	0.4%	1.1
O=C(CN1C(=O)NC2(CCc3ccccc32)C1=O)c1ccc(F)c(F)c1 (stereo not given)	13	.	.	-9	-21%	0.3%	1.2
CCOC(=O)C1=c2s/c(=C\c3ccncc3)c(=O)n2C(N)=C(C(=O)OC)C1c1ccncc1 (stereo not given)	0	-0.7	-14%	-6	-0.3%	-2.0%	0.2
O=C(COC(=O)CCc1c[nH]c2ccccc12)NC(c1ccccc1)c1ccccc1	?	0.1	5%	15	-0.5%	-0.4%	-0.2
O=C(NCC1CCCO1)c1cc(-c2ccc(Cl)cc2Cl)on1 (stereo not given)	8	?	4%	12	-0.1%	0.2%	-1.2
CCn1ccnc1CC1COc2ccccc2O1 (stereo not given)	-10	?	16%	4	-0.6%	0.2%	-0.9
